# Screening results: PubChem BioAssay, National Center for Advancing Translational Sciences (NCATS)
# Six1-Eya2 blk – inhibitors of human Six1/Eya2 interaction; Q15475+O00167; AlphaScreen GST-Six1/His-Eya2 binding, biochemical; stronger effect = lower value; control for the full effect not named in the record; activity change, % (no concentration beside the values); 360,000 compounds, 0.56% hits; AID 651725; in the data active = activity change below about -65%; inconclusive = about -30% to -65%; inactive = above about -30%; note: % is set by controls: 0 for no effect and ±100 for the full control effect
#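 GST-Six1 + His-Eya2 (5X stock: 250/500 nM); Tris pH 8.0, 300 mM NaCl, 0.05% BSA, 0.02% Tween 20; GSH donor/Ni acceptor beads; 1 h 37 °C dark; AlphaScreen readout.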
# PINK1 expr mod – modulators of PINK1 expression; PINK1 immunofluorescence, high-content cytometry, 24 h; 410,000 compounds, 0.2% hits; Potency, µM (highest dose often 76.6 µM), for the others: at the top dose activation (PINK1 increase), hits mostly activators; active = well fitted activation curve with a large enough effect; inconclusive = small, poorly fitted or top-dose-only effect; inactive = flat fitted curve, though single readings scatter; cell line not stated here;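 note: potency is the fitted concentration of half-maximal effect; % of control where 0% means no effect; nearly all actives have a fitted effect of over 65% in size; a mitochondrial uncoupler was the plate control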
#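 Cells are seeded, rested 12 hours, then given compound at five concentrations or DMSO for 24 hours. After fixation, blocking and antibody staining, PINK1 amount and mitochondrial localization are scored; CCCP serves as control.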
# D2 agonist – agonists of human D2 dopamine receptor (beta-arrestin). DiscoveRx PathHunter D2 beta-arrestin, luminescence, 90 min; 100% = 57 uM dopamine signal. activation, % (concentration not given with the values). P14416. 360,000 compounds, 0.084% hits; in the data active = activation above about 40%; inconclusive = about 15% to 40%; inactive = below about 15%; note: the text of the record calls up to 30% inactive
# Target sequence (P14416 whole entry, looked up): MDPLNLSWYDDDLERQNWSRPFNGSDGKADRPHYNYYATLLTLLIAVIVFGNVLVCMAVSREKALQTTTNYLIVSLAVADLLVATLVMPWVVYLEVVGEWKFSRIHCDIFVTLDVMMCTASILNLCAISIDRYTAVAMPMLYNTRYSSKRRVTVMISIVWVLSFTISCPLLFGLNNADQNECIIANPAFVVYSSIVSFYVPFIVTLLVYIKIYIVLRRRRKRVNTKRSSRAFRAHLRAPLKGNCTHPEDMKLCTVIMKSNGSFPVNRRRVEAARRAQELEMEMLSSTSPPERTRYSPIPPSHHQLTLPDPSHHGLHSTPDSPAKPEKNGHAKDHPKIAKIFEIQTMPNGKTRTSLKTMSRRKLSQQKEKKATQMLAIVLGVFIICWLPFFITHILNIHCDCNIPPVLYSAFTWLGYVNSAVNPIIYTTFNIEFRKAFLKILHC
#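 Agonist mode: compounds alone added to overnight-plated D2 PathHunter cells for 90 min at 37 C, with 57 uM final dopamine (EC100) defining full response. Beta-arrestin recruitment detected by chemiluminescent reagent, read after 1 h at ambient temperature.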
# TRPML1 agonist – activates the human TRPML1 channel; TRPML1-expressing cells, Ca2+ dye fluorescence, FDSS; host cell line not named in the record; reference of the full effect not given here; activation, % (no concentration beside the values); 410,000 compounds, 0.12% hits; in the data active = activation above about 50%; inconclusive = about 30% to 50%; inactive = below about 30%; note: 0% is about no effect; the text of the record puts the active cut at 80%
# Target sequence (Q9GZU1 whole entry, looked up): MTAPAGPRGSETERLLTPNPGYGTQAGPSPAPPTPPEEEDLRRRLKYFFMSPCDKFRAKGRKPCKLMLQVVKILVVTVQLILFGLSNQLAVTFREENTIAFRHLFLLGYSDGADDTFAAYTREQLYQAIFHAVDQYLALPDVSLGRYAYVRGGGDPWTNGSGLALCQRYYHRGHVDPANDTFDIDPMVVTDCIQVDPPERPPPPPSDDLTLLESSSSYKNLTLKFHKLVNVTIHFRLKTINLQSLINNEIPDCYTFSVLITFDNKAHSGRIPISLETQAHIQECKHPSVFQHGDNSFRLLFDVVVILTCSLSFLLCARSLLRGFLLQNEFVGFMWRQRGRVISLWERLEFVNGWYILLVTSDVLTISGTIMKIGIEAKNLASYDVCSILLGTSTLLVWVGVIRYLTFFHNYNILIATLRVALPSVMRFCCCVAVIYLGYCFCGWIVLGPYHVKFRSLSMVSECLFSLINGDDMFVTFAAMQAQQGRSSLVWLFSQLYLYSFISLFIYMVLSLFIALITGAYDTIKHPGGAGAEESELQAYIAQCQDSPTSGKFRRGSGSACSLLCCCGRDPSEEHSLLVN
#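 Tet-induced TRPML1-DL cells, 1,500 per well, cultured overnight, were loaded with a no-wash Ca2+ dye for 45–90 min. Calcium fluorescence was recorded on the FDSS for 110 s after compound addition, before the EC80 agonist (4 uM 54-4) was added.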
# D2 PAM – positive allosteric modulators of human D2 dopamine receptor. P14416. DiscoveRx D2 beta-arrestin cells, luminescence, 90 min; 100% = 57 uM dopamine signal. potentiation, % (test concentration not listed). 360,000 compounds, 0.23% hits; active = potentiation of 50% or more; inconclusive = 30% to 50%; inactive = 30% or less;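 note: compound concentration not given in the record; tested on top of an EC20 dose of dopamine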
#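 PathHunter D2 cells, attached overnight at 37 deg C, received compound in DMSO plus dopamine at EC20 (50 nM final) for 90 min at 37 deg C. Beta-arrestin recruitment was read as luminescence after 1 h with detection reagent at ambient temperature.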
# TRPML1 blocker – blocks the human TRPML1 channel; TRPML1-inducible cells, Ca2+ dye fluorescence, FDSS; stronger effect = lower value; inhibition of EC80 agonist-evoked calcium signal; activity change, negative = inhibition, % (concentration not given with the values); 390,000 compounds, 0.02% hits; AID 624415; in the data active means activity change below about -50%; inconclusive means about -30% to -50%; inactive means above about -30%;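 note: stimulus is agonist 54-4 at its EC80 concentration; % is set by controls: 0 for no effect and ±100 for the full control effect; the text of the record puts the active cut at -80%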
#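 Calcium fluorescence in TRPML1-DL cells induced overnight with Tet: a 110 s read after compound pin addition, then a 110 s antagonist read after challenge with 54-4 at 4 uM final (EC80).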
# An asterisk follows results filed as active; ? = inconclusive; · = not tested or not shown; [ ] = another dose, or the depositor's remark.
SMILES,Six1-Eya2 blk,PINK1 expr mod,D2 agonist,TRPML1 agonist,D2 PAM,TRPML1 blocker
Cc1ccc(-c2cnc(C(O)c3ccc(Cl)c(Cl)c3)[nH]2)cc1 (stereo unspecified),-11,18%,-2.0,-0.6,-16,65
Cc1ccc(Cl)cc1NC(=O)CCC(=O)O,9,-0.4%,1.1,-0.2,2,-3
COc1ccc(NC(=O)C(=O)c2cn(CC(=O)N3CCCC3)c3ccccc23)cc1OC,1,9.5%,5.9,0.4,16,-14
CCC1N=C(SC)NC(C)=C1C(=O)c1ccccc1 (stereo unspecified),-9,-1.6%,-0.1,0.2,-7,0
CCCC(=O)N(Cc1cc(=O)[nH]c2ccccc12)c1ccccc1,8,-1.3%,-1.5,0.0,-8,-3
Cc1cccc(NC(=O)c2ccc3c(c2)C(=O)N(c2ccccn2)C3=O)c1C,-3,-0.4%,-4.0,0.6,-12,5
CCOC(=O)c1c(NC(=O)CSc2ncccn2)sc2c1CC(C)(C)NC2(C)C,5,0.5%,-2.8,0.0,-10,19
CCOc1ccc(NC(=O)CC2C(=O)N(c3ccc(OC)cc3)C(=O)N2CCC2=CCCCC2)cc1 (stereo unspecified),·,4.8%,·,1.1,·,9
CCc1cccc2c1Sc1ccccc1CC2N1CCNCC1 (stereo unspecified),-3,2.6%,-5.3,0.3,-31,-4
CC(=O)Nc1ccc(-c2ccnc3c2CC(C)(C(=O)NCc2ccc(N(C)C)cc2)O3)cc1 (stereo unspecified),?,1.6%,?,-0.5,-3,·
CN(C)CCCN1C(=O)c2cccc3c([N+](=O)[O-])ccc(c23)C1=O,-9,4.3%,?,3.6,63*,10
CCOC(=O)C1Nc2c(cc(C(F)(F)F)cc2[N+](=O)[O-])C2c3ccccc3CC12 (stereo unspecified),-18,6.1%,1.6,-0.4,1,2
CCN(CC)CCNC(=O)COc1ccc(Cl)cc1Cl,6,-2.1%[38.3 µM],1.7,0.7,-21,-7
CCCCn1c(N)c(N(CC(C)C)C(=O)c2ccc(Br)o2)c(=O)[nH]c1=O,8,-2.7%,-1.4,1.7,-41,20
Cc1cccc(N2N=C(C(=O)O)CCC2=O)c1,-6,2.2%,1.3,·,-8,·
O=C(NC(=S)NC1CCSC1=O)c1ccccc1Cl (stereo unspecified),1,-0.1%,-0.7,-0.1,11,-3
CN1CCn2cnc(C(=O)Nc3ccc(CNC(=O)OC(C)(C)C)cc3)c2C1=O,-8,1.4%,-3.3,·,·,·
CCN(c1cc(C)cc(C)c1)S(=O)(=O)c1nnc(NC(=O)c2cccs2)s1,·,0.9%,·,1.0,·,-12
CCC[C@H]1CC(=O)C=C(c2ccc(OC)cc2)ON1C(=O)OC(C)(C)C,-1,?,-0.9,1.2,-7,-1
CC(C)C[C@H]1CN(CCCC[C@H]2CNC(=O)C(=O)N2CC2CCCCC2)C(=O)C(=O)N1CCc1ccc(O)cc1,29,0.9%,·,-0.7,·,·
CN1C(=S)SC(C)(C)C1/[N+]([O-])=C/c1cccnc1 (stereo unspecified),2,-1.1%,-0.5,-0.3,?,-5
COC(=O)C(C(=O)Nc1nc2ccccc2s1)C1CCCC1 (stereo unspecified),-1,-0.7%,1.3,0.7,-11,14
Cc1nnc(SCC(=O)NC(=O)NCCC(C)C)s1,1,1.6%,-1.8,-0.1,-6,3
CN1CCCCCC1C(=O)N1CCC(N2CCC(C(=O)N3CCOCC3)CC2)CC1 (stereo unspecified),1,6.3%,-1.9,0.1,-6,-5
CC(C)c1ccc(C2C(C(=O)c3ccco3)=C(O)C(=O)N2CC2CCCO2)cc1 (stereo unspecified),-4,1.0%,-1.0,-0.2,1,-12
SMILES,Six1-Eya2 blk,PINK1 expr mod,D2 agonist,TRPML1 agonist,D2 PAM,TRPML1 blocker
CC1CC(C)CN(S(=O)(=O)N2CCCC(C(=O)NC(C)c3ccccc3)C2)C1 (stereo unspecified),9,2.1%,-6.0,-0.1,-10,6
CCOc1ccccc1N(CC(=O)NC1CCCC1)C(=O)CCCC(=O)Nc1ccccn1,3,-0.2%,-1.7,0.8,-1,-5
CCOC(=O)Cn1nc(N2CCN(c3ccc(F)cc3)CC2)ccc1=O,·,1.7%,·,-0.8,·,3
Cc1nc2c(ncn2-c2ccccc2)c(=O)n1NC(=O)CN1CCN(C)CC1,-10,0.5%,-0.6,-0.6,-5,9
CCOc1ccc(/C(CCC(=O)O)=N/NC(=O)c2cccc(S(=O)(=O)Nc3ccccc3OC)c2)cc1,1,-0.7%,3.0,0.2,-4,-3
O=C(Nc1ccc(NC(=O)c2ccco2)cc1)c1ccco1,1,0.3%,-3.0,0.2,-6,-8
Cc1ccc(OC(=O)c2ccc(Br)o2)cc1,7,1.4%,-8.0,0.3,-18,32
Cc1nn(CC(=O)N(C)C)c(C)c1S(=O)(=O)N1CCOCC1,0,-0.6%,0.7,0.0,1,-3
O=C(N/N=C/C=C/c1ccccc1[N+](=O)[O-])c1cc(-c2ccccc2)n[nH]1,-22,4.8%,1.9,1.5,-19,11
CC(=O)N1c2ccc(S(=O)(=O)NCCc3ccc(S(N)(=O)=O)cc3)cc2CC1C (stereo unspecified),-1,-1.3%,-5.2,-1.0,-7,6
Cc1cc(Nc2ccc(F)c(Cl)c2)n2nc(C)nc2n1,-1,-0.7%,-3.0,0.3,0,-2
COc1ccc(NC(=O)CN(C)CC(=O)N(CC(C)C)c2c(N)n(CC(C)C)c(=O)[nH]c2=O)cc1,-2,-0.5%,-2.8,0.1,-5,0
COC(=O)c1cccc(NC(=O)c2ccc[n+]([O-])c2)c1,5,0.9%,-0.4,-0.3,-3,5
O=C(Cc1ccccc1)N1CCNCC1,-2,2.0%,1.1,-0.2,-8,-5
Cc1c(C(=O)N2CCN(c3ccccc3)CC2)oc2c(Cl)cccc12,-20,6.1%,0.5,-0.8,-10,1
CCOc1ccc(/C=C2\SC(N3CCCCC3)=NC2=O)cc1,-2,0.8%,-2.4,1.8,-11,13
NS(=O)(=O)c1ccc(NC(=O)COC(=O)c2ccco2)cc1,7,0.0%,4.1,0.3,-9,16
Cc1c(Cl)cccc1NC(=O)NN1CCN(C)CC1,-16,0.0%,-5.1,0.5,-4,9
CC(C)(C)c1ccc(C(=O)c2cn[nH]c2-c2ccccc2O)cc1,-9,5.4%,0.1,0.9,4,24
COc1ccc(Cl)cc1NC(=O)Nc1cccc([N+](=O)[O-])c1C,-1,20%,-4.7,-0.6,-57,-5
COc1ccccc1CNC(=O)CCCN1C(=O)CSc2c1c(C)nn2-c1ccccc1,·,0.0%,·,0.5,·,7
CCCCN1C(=O)C(=O)NC[C@@H]1C(C)O (stereo partly specified),4,1.1%,-3.5,0.5,1,40
Cc1oc(C)c2c(=O)ccc3c(c12)OC(N)=C(C#N)C3c1ccc(F)cc1 (stereo unspecified),-5,25%,-6.5,3.0,?,21
CCCc1cc(Nc2cccc(OCC)c2)n2ncnc2n1,-6,?,-0.1,0.7,-6,63
O=C(Nc1onc2c1CCCC2)c1ccc(Cl)cc1,·,-0.1%,·,-0.9,·,-12

# Molecules listed so far that contain bromine (2):
SMILES,Six1-Eya2 blk,PINK1 expr mod,D2 agonist,TRPML1 agonist,D2 PAM,TRPML1 blocker
CCCCn1c(N)c(N(CC(C)C)C(=O)c2ccc(Br)o2)c(=O)[nH]c1=O,8,-2.7%,-1.4,1.7,-41,20
Cc1ccc(OC(=O)c2ccc(Br)o2)cc1,7,1.4%,-8.0,0.3,-18,32

# Additional compounds follow:
SMILES,Six1-Eya2 blk,PINK1 expr mod,D2 agonist,TRPML1 agonist,D2 PAM,TRPML1 blocker
O=C(N1CCC(n2nc(-c3ccccc3)oc2=O)CC1)C1(c2ccc(Cl)cc2)CC1,-3,0.3%,0.8,2.7,-10,20
Cc1ccccc1N(C(=O)c1csnn1)C(C(=O)NC(C)(C)C)c1cccs1 (stereo unspecified),0,1.2%,-1.5,2.2,-3,-14
CCOC(=O)c1c(NC(=O)CSc2ncnc3ccccc23)sc(C(C)=O)c1C,-3,1.1%,2.2,1.1,-9,-16
O=C(Cc1ccccc1)Nc1ccc(NC(=O)c2ccco2)nc1,-4,-0.9%,-1.4,-0.1,-11,-3
COc1ccc(NCc2nnc(SCC#N)n2-c2ccccc2OC)cc1,9,1.3%,0.4,-0.4,-1,13
COc1ccc(S(=O)(=O)N2CC(C)OC(C)C2)cc1C(=O)N1CCCCC1 (stereo unspecified),0,-0.4%,-3.7,-0.6,-8,-15
CCN(C(=O)Cn1cc(S(=O)(=O)Cc2ccccc2Cl)c2ccccc21)c1ccccc1,·,-1.4%,·,0.6,·,2
C/C(=N\Nc1ccccn1)c1cccs1,-3,7.0%,1.6,-0.1,-4,4
CCc1nc2c(OCC(=O)N3CCOCC3)cccn2c1N(C)C(=O)COc1ccccc1,8,1.9%,2.7,0.1,-8,-1
CN(C)S(=O)(=O)Oc1ccc(C(=O)Nc2cccc(Cl)c2)cc1,6,1.9%,1.1,-0.7,-6,-2
CN(C)c1nc(Cl)cc(N2CCOCC2)n1,0,-2.2%,4.9,0.0,6,6
CC(C)c1ccc(Nc2ncc3c(n2)CCN(C(=O)Nc2ccc(F)c(Cl)c2)C3)cc1,2,?,12,-0.1,-5,·
CCN(CC)CCCNC(=O)c1oc2ccc(S(=O)(=O)N3CC(C)CC(C)C3)cc2c1C (stereo unspecified),-8,6.0%,1.7,0.2,-8,-7
O=C(O)c1ccc(-n2nnc3ccccc32)c([N+](=O)[O-])c1,3,-2.6%,-1.8,-0.7,-8,9
Cc1nc2ccc(S(=O)(=O)N(CC(=O)Nc3cccc(C)c3C)Cc3ccccc3)cc2s1,·,1.0%,·,3.7,·,-6
COc1ccc(/C=N/Nc2cc(C)nc3ccc(OC)cc23)c(OC)c1,4,-2.0%,3.4,-0.7,-26,15
COc1cc(Cl)c(C)cc1NC(=O)Cn1ncc2c(=O)oc3ccccc3c21,·,1.2%,·,-0.2,·,9
O=C(Nc1cccnc1)c1noc2c1CCCCC2,5,6.5%[38.3 µM],1.7,-0.5,-8,35
COc1ccc(CNC(=O)CCc2c(C)nc3c(c2C)c(=O)n(C)c(=O)n3C)cc1,·,1.4%,·,-0.2,·,-13
COc1cccc(CC(=O)OCC(=O)Nc2c(C)nn(-c3ccccc3)c2C)c1,-8,3.8%,-0.1,-0.2,5,8
Cc1ccc(NCc2ccco2)cc1C,-11,1.8%,-0.8,2.8,-5,14
COc1ccc(S(=O)(=O)NNC(=O)C(=O)NNc2ccccn2)cc1,-91*,0.7%,-0.7,-0.7,4,-3
Cc1cccnc1NC1(C(F)(F)F)N=C2SCCN2C1=O (stereo unspecified),1,2.9%,2.4,0.2,-5,18
CC(C)C1=NN(C(=O)c2ccccc2)C(O)(C(C)(C)C)C1 (stereo unspecified),16,1.3%,-1.5,0.0,0,1

# Part of the list above, reduced to D2 PAM, PINK1 expr mod and Six1-Eya2 blk:
SMILES	D2 PAM	PINK1 expr mod	Six1-Eya2 blk
CCOC(=O)c1c(NC(=O)CSc2ncnc3ccccc23)sc(C(C)=O)c1C	-9	1.1%	-3
O=C(Cc1ccccc1)Nc1ccc(NC(=O)c2ccco2)nc1	-11	-0.9%	-4
COc1ccc(NCc2nnc(SCC#N)n2-c2ccccc2OC)cc1	-1	1.3%	9
